MT1-MMP act inh = MT1-MMP (human) activation inhibition | P50281 | HT1080 RFP-PRO-GFP cells, GFP/RFP ratio fluorescence, overnight; percent of plate control window, DMSO zero | GFP/RFP ratio change, % at 20 µM | 360,000 tested, 0.061% active;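 active means GFP/RFP ratio change of at least 30% with cell ATP level not reduced by more than half and red fluorescence within 50% of control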; further: strong numbers were not always called active
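Assay system: RFP-PRO-GFP reporter HT1080 cells; read-out basis: GFP/RFP fluorescence ratio; benchmarks: DMSO wells and RFP-L50D-GFP cells; doses: 20 µM single dose, 1% DMSO; schedule: overnight cell settling, then overnight compound exposure, 37 °C, 5% CO2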
Env fusion inh = blocks HIV Env-driven cell-cell fusion. AID 651610. inhibition, % at 12.3 µM. 360,000 tested, 1.1% active. HeLa-JRFL Env/CEM21 cell fusion, luciferase;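 active means mean replicate inhibition score of at least 50 and every replicate individually at or above 50; inconclusive means only one of the two criteria met; inactive means mean below 50 and not all replicates reaching 50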;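 further: 0% = plate neutral controls and 100% = maraviroc near 300 nM; one replicate is shown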
CSC inhib = blocks cancer stem cells. cancer stem cell-like cells viability, luminescence. inhibition, % at 7.5 µM. 300,000 tested, 1.1% active. AID 2717;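 active means mean at 75% or more and at least half the replicates too; inconclusive means mean and replicates disagree; tested in HMLE shEcad cells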;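 further: 0% = median of negative and 100% = median of positive control wells; the first replicate is given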
Yeast UUG start = yeast start codon fidelity modulation. S. cerevisiae UUG-firefly luciferase reporter, luminescence/redox ratio. activity score, % at 18.7 µM. 350,000 tested, 0.13% active;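 active means replicate mean at a twofold rise or more, about +100% in these data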;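 further: firefly luciferase made from a UUG start codon reports start codon fidelity; reporter light over untreated wells divided by growth signal over untreated wells; some hits fall short of that in this replicate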
Rce1 inh = inhibitors of yeast Ras-converting enzyme | 290,000 tested, 0.27% active | Q03530 | calls only | yeast membranes, quenched prenylated peptide cleavage fluorescence;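 active means fall in fluorescence gain of 50% or more versus controls, with final raw signal at or below 3038400; inconclusive means same 50% fall but final raw signal above 3038400; inactive means fall in fluorescence gain under 50%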;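 further: plate controls were neutral control wells for no effect and wells lacking membranes for full effect; tested at 10 µM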
Target sequence (Q03530 whole entry, looked up): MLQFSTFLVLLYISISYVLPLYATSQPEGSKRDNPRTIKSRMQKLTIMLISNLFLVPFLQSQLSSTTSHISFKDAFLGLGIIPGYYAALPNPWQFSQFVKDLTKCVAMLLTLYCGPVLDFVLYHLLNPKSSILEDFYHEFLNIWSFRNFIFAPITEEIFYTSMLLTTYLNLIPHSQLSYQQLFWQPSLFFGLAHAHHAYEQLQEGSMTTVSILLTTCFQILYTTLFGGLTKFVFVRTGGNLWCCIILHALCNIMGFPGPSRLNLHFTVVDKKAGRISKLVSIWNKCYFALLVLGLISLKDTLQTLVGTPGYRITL
eIF4H inh = inhibitors of RNA binding by human eIF4H. Q15056. eIF4H fluorescence polarization binding assay. inhibition, % at 35 µM. 290,000 tested, 0.94% active;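 active means 50% or more with normal probe brightness, or confirmed in later tests; inconclusive means above 50% with abnormal brightness, or retests that disagree; inactive means below 50% or failed in later tests; about a fifth of its hits are not listed in these tables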;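 further: calls also rest on retests at 20 µM and on dose response follow-up; 0% = protein and probe with vehicle and 100% = probe without protein; strong numbers were not always called active; many hits fall short of the cut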
PABP polyA inh = PABP-poly(A) binding inhibition; P11940; inhibition, % at 35 µM; 290,000 tested, 1% active; PABP-poly(A) RNA binding, fluorescence polarization;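 active means 50% or more with normal probe brightness, or confirmed in later tests; inconclusive means above 50% with abnormal brightness, or retests that disagree; inactive means below 50% or failed in later tests; about a fifth of its hits are not listed in these tables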;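 further: calls also rest on retests at 20 µM and on dose response follow-up; controls were probe without protein and protein plus probe with vehicle; some compounds called inactive have numbers as strong as hits; many hits fall short of the cut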
eIF4H inh retest = second read-out of eIF4H inh, no call of its own (marks repeat the call); inhibition, %; compound at 20 µM; confirmation average;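 mean of two retest wells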
PABP polyA inh retest = further read-out of PABP polyA inh, marked with its call; inhibition, %; compound at 20 µM; confirmation repeats;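 mean of two retest wells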
MT1-MMP act inh RFP = recorded beside MT1-MMP act inh, whose call it bears; RFP signal change, %; measured here: RFP expression control read;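 0 = vehicle wells; hits needed this value within 50% of zero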
Active calls of the source: *; i = inactive; ? = inconclusive; / = not tested or not shown; & = joins results of further samples; [ ] = dose if it differs, or a comment. An excerpt; rates above refer to the full screens.

SMILES	MT1-MMP act inh	MT1-MMP act inh RFP	Env fusion inh	CSC inhib	Yeast UUG start	Rce1 inh	eIF4H inh	PABP polyA inh	others
CC12CC[C@H]3[C@@H](CCC4(O)C[C@H](O)CCC34/C=N/NC(=O)c3ccccc3F)C1(O)CCC2C1=CC(=O)OC1 (stereo not given in full)	-1	2	-11	36	-1	i	-12	-4
Cc1c(N)c(C)c([N+](=O)[O-])c(C)c1[N+](=O)[O-]	-6	-1	22	-4	/	i	-3	5
Cc1nn(Cc2ccccc2Cl)c(C)c1C(=O)OCC(=O)N1CC(C)OC(C)C1 (stereo not given)	3	3	-8	-15	1	i	-2	0
CC1CC2(C)C(=CC1=O)CCC1C3CCC(C)(O)C3(C)CC3OC312 (stereo not given)	-5	-3	-13	/	-40	/	/	/
CN(CC(=O)Nc1ccccc1-c1ccccc1)C1CCCCC1	-1	-1	/	50	-8	i	6	8
CN(C)C(=O)Oc1ccc(Cl)c2cccnc12	0	0	7	1	-12	i	-5	-2
Cc1c(C=O)c2ccccc2n1Cc1cccc(F)c1	1	4	12	5	/	i	3	-6
O=C1N(c2cccc(Cl)c2)C(c2cccnc2)N2CCCN12 (stereo not given)	0	2	3	2	/	i	-6	3
CCC(=O)N1CC(=O)Nc2ccc(F)cc2C1c1ccc(F)cc1 (stereo not given)	-2	2	12	-11	-7	i	4	7
Nc1ccccc1Cl	-1	6	/	-18	-28	/	/	/
OC1/C(=C/c2ccc(F)cc2)N2CCC1CC2 (stereo not given)	-2	-1	12	-14	/	i	-4	6
C[C@H](NC(=O)N1C[C@H]2C[C@@H](C1)c1cccc(=O)n1C2)C(=O)Nc1ccccc1F	7	5	/	-3	2	/	0	-2
CN1CCN(c2ccc(F)cc2N)CC1	0	0	-5	/	/	i	-9	-4
NNC(=O)c1ccc(O)cc1	-3	1	1	3	-9	/	/	/
O=C(C1CC(=O)N(C2CCCCCCC2)C1)N1CCC2(CC1)OCCO2 (stereo not given)	0	-3	-19	-11	/	i	5	7
CS(=O)(=O)N1CCCC(C(=O)N2CCC3(CC2)OCCO3)C1 (stereo not given)	4	-3	/	3	3	i	1	-8
CC(=O)Nc1ccccc1OP1(=O)COc2ccccc2OC1	8	7	-34	-7	9	i	-11	16
Cc1nn(CC(=O)N2CCC3(CC2)OCCO3)c(=O)c2cc3ccccc3n12	-1	-4	-1	-6	-6	i	-4	6
C/C(=N\NC(=O)c1ccncc1)c1c(O)[nH]c(=O)[nH]c1=O	/	/	-14	3	/	i	/	/
Cc1cc(Cl)ccc1OCCCC(=O)NCc1cccs1	4	3	-177	3	-10	i	-2	2
CCN(C(=O)COC(=O)C(O)(c1ccccc1)c1ccccc1)c1c(N)n(Cc2ccccc2)c(=O)[nH]c1=O	1	-1	-4	/	-10	/	/	/
O=C(O)c1ccc(-n2c(O)c(/C=C3\C=Nc4ccccc43)c(=O)[nH]c2=O)cc1	-6	4	23	-16	-14	i	?	?
Cc1ccc(OC(=O)N(C)C[C@@H]2OCc3cnnn3CCCC(=O)N([C@@H](C)CO)C[C@@H]2C)cc1	2	1	-16[16.7 µM]	/	2&-1&-8	/	/	/
CCc1c(C)nc(N)nc1N1N=C1SCC(N)=O	0	3	-56	-8	-15	i	7	-5
COc1ccc(C(=O)C2CCCN(Cc3ccon3)C2)cc1OC (stereo not given)	-7	-10	7	-9	/	i	0	-9
Cc1cc(NCCN)nc2ccccc12	6	6	/	-11	/	i	-2	34
NCCc1c[nH]c2ccccc12	0	3	/	-5	-6	/	0	10
Cc1ccccc1C(=O)NC(Oc1ccccc1)C(Cl)(Cl)Cl (stereo not given)	3	3	23	-4	-2	i	2	2
CCOC(=O)CNC(=O)N1Cc2ccccc2-n2nncc2C1	6	2	30	/	-5	/	/	/
CN(C)C1(CNC(=O)Cc2ccccc2F)CCCCC1	-1	1	-4	-13	-6	i	-6	-12
CN1CCN(c2cn[nH]c(=O)c2Cl)CC1	3	4	18	-2	-6	/	-5	-3
COc1ccc(N2C(=O)/C(=C/C=C/c3ccccc3[N+](=O)[O-])C(=O)NC2=S)cc1	/	/	-11	/	/	i	36	-11
COC(=O)C(O)(c1ccc(N(C)C(=O)OC(C)C)cc1)C(F)(F)F (stereo not given)	0	-2	/	-10	16	i	3	3
CN(C)c1ccc(/C=C2/C(=O)NC(=O)N(CCc3ccc(F)cc3)C2=O)cc1	-5	6	12	/	/	/	?	5
Cn1cccc1/C=C1/C(=O)NC(=O)N(C(C)(C)C)C1=O	-8	4	-11	-9	1	i	-2	0
CCCCn1nnnc1C(CC)N1CCC2(CC1)C(=O)NCN2c1ccccc1 (stereo not given)	4	7	-44	/	-10	/	/	/
COc1cc(NC(=O)CN2C3CCC2CC(O)(c2cccnc2)C3)cc(OC)c1 (stereo not given)	1	-4	2	-2	-10	i	-2	3
C[C@]12CCC3C(CC[C@@H]4CC(=O)CC[C@]34C)C1CC[C@@H]2O (stereo not given in full)	0	1	-12	4	13	/	/	/
CC(=O)OC1CCC2(C)C3CCC4(C)C(OC(C)=O)CCC4C3C(C)C2(O)C1 (stereo not given)	3	0	-19	/	32	/	/	/
Oc1ccc(Br)cc1CN1CCN(c2ccccc2)CC1	-1	-8	15	5	-12	i	4	3
COc1cccc(C(=O)C2CCCN(Cc3ccon3)C2)c1 (stereo not given)	-2	-1	-15	-6	/	i	0	6
COC(=O)C1=C(c2ccc(S(C)(=O)=O)cc2)C[C@@H]2CC[C@H]1N2C(=O)N1CCCCC1	-3	4	-6	-7	-14	i	/	/
COc1cccc(-c2nn(Cc3ccccc3)cc2C(=O)O)c1	1	3	8	2	-19	/	-8	-6
O=C(Cc1ccccc1)Oc1cccc(-n2cnnn2)c1	1	2	5	-1	/	i	4	-7
CCOC(=O)N(CC)c1ccc(C(O)(C(=O)OCC)C(F)(F)F)cc1 (stereo not given)	-8	-3	/	-4	-4	i	-6	-1
COP(=O)(OC)C(NC(=O)/C=C/c1ccccc1)C(Cl)(Cl)Cl (stereo not given)	8	7	-7	-3	/	i	10	-5
CCCN(CC#CCOc1ccc(OC)cc1)CCC	1	0	/	-12	-9	i	-6	-2
Cc1ccsc1C(=O)C1CCCN(Cc2cnc(N)nc2)C1 (stereo not given)	-2	2	13	8	-24	i	4	7
Cc1c(C(c2ccc(O)cc2)c2c(O)c3ccccc3oc2=O)c(=O)n(-c2ccccc2)n1C (stereo not given)	4	5	-11	4	/	i	3	-5
Cc1ccc(-n2c(O)c(C=NCC3CCCO3)c(=O)[nH]c2=O)c(C)c1 (stereo not given)	-3	-2	-1	9	0	i	4	-5
C[C@]12CC[C@H](N)CC1=CCC1C2CC[C@@]2(C)C1CC[C@@H]2O (stereo not given in full)	1	-1	8	14	/	/	/	/
CC(C)CNP(=S)(c1ccccc1)C(C)(C)C (stereo not given)	3	7	11	0	-17	i	1	15
CCc1cc2c(cc1-c1csc(C/C(N)=N/O)n1)C(C)(C)CCC2(C)C	-2	-4	10	/	-16	/	/	/
O=c1[nH]c(=O)n(Cc2ccco2)c(O)c1C=NCCN1CCOCC1	-5	3	/	-11	4	i	38	58	eIF4H inh retest=0;PABP polyA inh retest=6
CC(=O)N1N=C(c2cccnc2)OC1c1ccccc1Cl (stereo not given)	-1	-1	-2	12	-11	i	-2	3
CCOc1cc2c(cc1OCC)-n1cccc1C(c1cccc(OCC)c1O)NC2 (stereo not given)	-4	-3	8	/	-11	i	3	-4
COc1ccc(-[n+]2c(-c3ccccc3)cc(-c3ccc(C)cc3)cc2-c2ccccc2)cc1	-2	-35	54	24	6	i	-10	-2
COc1ccc(NC(=O)c2cn(CCC#N)nc2-c2cccc(Br)c2)cc1	-2	-2	-71	-14	-8	i	-4	8
O=C(Nc1ccc(Cl)cc1C(=O)c1ccccc1Cl)c1ccco1	3	-1	-25	-15	-7	i	0	-3
CC1CN=C(Nc2cccc3ccccc23)S1 (stereo not given)	-1	-1	/	-15	-17	i	-2	3
Further records follow:
SMILES	MT1-MMP act inh	MT1-MMP act inh RFP	Env fusion inh	CSC inhib	Yeast UUG start	Rce1 inh	eIF4H inh	PABP polyA inh	others
Cc1ccsc1C(=O)C1CCCN(Cc2cccc(OCCO)c2)C1 (stereo not given)	0	-1	-12	-12	-3	i	2	-7
COC(=O)C1=C(c2ccc(F)cc2F)C[C@@H]2CC[C@H]1N2C(=O)N1CCC(C)CC1	1	-2	-14	-5	13	/	/	/
O=C(N1CCCCCC1)N1CC1	-8	0	-5	/	-2	/	/	/
CCOc1ccc(NC(=O)c2c(C)nn(Cc3ccccc3)c2Cl)cc1	3	0	-6	1	-1	i	-3	1
Clc1ccc(Cn2ccnc2)cn1	2	6	-6	0	-14	i	-2	-8
COc1cccc(-n2c(-c3ccoc3)nc3ccccc3c2=O)c1	4	1	-69	4	-30	i	8	3
Cc1cccc(OCC(=O)N2CCN(Cc3cccnc3)CC2)c1	0	3	5	-15	/	i	23	0
CC(=O)Nc1ccc(OC(=O)N(C)C)cc1	4	7	-21	-15	-22	i	-7	4
CSCCC(c1nnnn1Cc1ccccc1)N1CCC2(CC1)C(=O)NCN2c1ccccc1 (stereo not given)	-2	-5	9	/	-8	/	/	/
O[C@H]1C2CCC1C(N1CCCCC1)CC2 (stereo not given in full)	2	9	/	-16	-7	i	-3	1
CCN1CCN(Cc2cc(Br)cc(OC)c2O)CC1	1	1	/	-4	/	i	-3	9
O=C(COc1ccc2c3c(c(=O)oc2c1)CCC3)N1C[C@H]2C[C@@H](C1)c1cccc(=O)n1C2	-1	3	/	-14	-17	i	6	0

Overlap with the part before: 3 compounds, then new ones.
SMILES	MT1-MMP act inh	MT1-MMP act inh RFP	Env fusion inh	CSC inhib	Yeast UUG start	Rce1 inh	eIF4H inh	PABP polyA inh	others
O[C@H]1C2CCC1C(N1CCCCC1)CC2 (stereo not given in full)	2	9	/	-16	-7	i	-3	1
CCN1CCN(Cc2cc(Br)cc(OC)c2O)CC1	1	1	/	-4	/	i	-3	9
O=C(COc1ccc2c3c(c(=O)oc2c1)CCC3)N1C[C@H]2C[C@@H](C1)c1cccc(=O)n1C2	-1	3	/	-14	-17	i	6	0
COC(=O)C1=C(c2ccc(OC)c(OC)c2)C[C@@H]2CC[C@H]1N2C(=O)N1CCc2cc(OC)c(OC)cc2C1	0	0	3	-2	5	/	/	/
COC(=O)C1=C(c2ccc(F)cc2OCc2ccccc2)C[C@@H]2CC[C@H]1N2C(=O)NCCN1CCOCC1	-3	-2	-25	1	-13	/	/	/
CCCN1CCC2(CC1)NC(CO)(CO)CO2	4	8	/	-9	1	i	9	2
O=C(N/N=C/c1c(O)n(C2CCCCC2)c(=S)[nH]c1=O)c1ccccc1O	18	15	-77	24	-17	i	/	/
Nc1ccc(Br)cc1C(=O)c1ccccc1	-4	-2	-2	-4	/	i	-4	-4
c1ccc(CN2CCc3nc4ccccc4cc3C2)cc1	-1	1	-13	3	-5	i	27	6
O=C(C[N+]12CCC(CC1)C(C(O)(c1ccccc1)c1ccccc1)C2)c1ccc(Br)cc1 (stereo not given)	-3	0	6	-12	-22	i	-2	-10
C=C(C)CSc1nnc([C@@H](N)Cc2ccccc2)o1	-2	0	0	-16	/	i	-2	14

Bioassay records as filed in PubChem.
